# CBX7 inh – blocks human CBX7 binding to H3K27me3 peptide; AID 1224903; 66,000 compounds, 1.1% hits; normalised signal (fraction of DMSO) (no concentration beside the values); AlphaScreen His6-CBX7 / biotin-H3K27me3 peptide binding; hits give low values; O95931; in the data active = normalised signal below about 0.5;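 note: 100 nL library stock added to about 20 µL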
# Target sequence (O95931 whole entry, looked up): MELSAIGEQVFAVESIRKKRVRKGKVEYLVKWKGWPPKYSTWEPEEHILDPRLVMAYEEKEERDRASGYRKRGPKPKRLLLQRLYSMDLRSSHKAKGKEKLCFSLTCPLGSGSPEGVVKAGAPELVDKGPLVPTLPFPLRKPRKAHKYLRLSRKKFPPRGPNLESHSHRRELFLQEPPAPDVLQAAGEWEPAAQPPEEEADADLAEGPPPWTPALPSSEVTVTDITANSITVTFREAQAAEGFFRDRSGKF
# CBX7 inh z-score – also measured in CBX7 inh; calls as there; z-score; measured here: z-score of CBX7 signal; some inactives read as strong as hits; reference of the scale not given here;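 same signal on another scale; lower means less binding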
# Numbers without * were called inactive; & = joins results of further samples. Only part of the results is shown; the hit share may differ from the screen's.
SMILES,CBX7 inh,CBX7 inh z-score
COc1ccc(NS(=O)(=O)c2ccc3c(c2)CC(C)N3C(C)=O)cc1 (stereo not given),0.98,-1
COc1ccccc1Nc1nc(-c2ccc(-c3ccccc3)cc2)cs1,0.91,-1.8
CCOc1ccc(C(=O)Nc2nc(-c3ccc(F)cc3)cs2)cc1,0.99,-0.38
COc1ccc(-c2noc(COc3cccc(C)c3C)n2)cc1OC,1.1,2.1
CCOc1cc2c(cc1OCC)C(c1ccc(OC)c(OC)c1)NCC2 (stereo not given),1.1,1.3
O=C(Nc1nc2ccccc2n1CCN1CCCCC1)c1cccc(COc2ccc(Cl)cc2)c1,1,1.1
Cc1ccc2nc(SCC(N)=O)[nH]c2c1,1.1,2.4
CCOC(=O)c1c(C)n(-c2cccc(C)c2)c2ccc(OC)cc12,0.82,-1.8
CC(NC(=O)c1cccc2c1C(=O)N(C1CCCCC1)C2)c1ccc2c(c1)OCCO2 (stereo not given),0.85,-2.9
O=C(CNC(=O)c1cc2ccccc2o1)Nc1ccc(Cl)c(C(F)(F)F)c1,1.1,2
Cc1cc(=O)n2[nH]c(-c3ccccc3Cl)cc2n1,1,1.5
CCc1ccccc1Nc1cc(C(=O)NCCCN2CCCC2)c2ccccc2n1,1.1,1.9
CCOCCCNC(=O)C1CCN(Cc2nc(-c3ccc(Cl)cc3)oc2C)CC1,1.1,1.5
O=C(Nc1cccc(Cl)c1)c1noc2c1CCCC2,1,0.13
Cc1cc(C)c2oc(-c3ccc(NC(=O)CC(C)C)cc3)nc2c1,0.99,-0.17
COc1ccc(NC(=O)N(C(C)C)C2CCN(C(C)=O)CC2)c(OC)c1,1.2,1.8
Cc1ccc(-n2c3c(cc(C(=O)NCCCN(C)C)c2=O)C(=O)CC(C)(C)C3)cc1,1.1,1.8
COc1ccc(-c2nn(C)c3sc(C(=O)N4CCCC(C)C4)cc23)cc1OC (stereo not given),0.96,-1.2
COc1ccc(CN2C(=O)CCC2(C)C(=O)NC2CCCCCC2)c(OC)c1 (stereo not given),1.3,3.3
CCOc1ccc(CCNc2cc(C)nc3nc(C)nn23)cc1OCC,1.1,2.6
Cc1cccc(NC(=O)c2ccccc2NC(=O)c2cccc(S(=O)(=O)N3CCC(C)CC3)c2)c1,0.94,-0.68
O=C(c1ccc2c(=O)n(CCc3ccccc3)c(=O)[nH]c2c1)N1CCN(c2ccc(Cl)cc2)CC1,0.99,-0.22
COc1ccc(CNC2CC(C)N(C)CC2C)cc1OC (stereo not given),1.1,0.25
Cc1nc2cc(C(=O)NC3CCCC3)ccc2n1-c1cccc(F)c1,0.97,-0.82
O=C(CC1(O)C(=O)Nc2ccc(Cl)cc21)c1ccc2c(c1)OCCO2 (stereo not given),1.1,2.2
COc1cc2[nH]c(=O)n(Cc3ccc(C(=O)N4CCN(c5ccc(F)cc5)CC4)cc3)c(=O)c2cc1OC,0.93,-1.7
COc1ccc(CN2CCN(c3ncnc4sc5c(c34)CCCC5)CC2)cc1F,0.99,-0.33
Cc1ccc2c(c1)N(CCCC(=O)NC1CC1)C(=O)CO2,1.5,1
Cc1ccc(CCNC(=O)CN2C(=O)COc3ccc(C(C)(C)C)cc32)cc1,0.82,-3.1
Cc1ccc(Cn2cnc3c(nnn3Cc3ccc(C)cc3)c2=O)cc1,0.9,-1.6

# Ordered by the number under CBX7 inh z-score (smallest number first): 6 of the compounds above.
Compound | CBX7 inh z-score
Cc1ccc(CCNC(=O)CN2C(=O)COc3ccc(C(C)(C)C)cc32)cc1 | -3.1
Cc1nc2cc(C(=O)NC3CCCC3)ccc2n1-c1cccc(F)c1 | -0.82
O=C(c1ccc2c(=O)n(CCc3ccccc3)c(=O)[nH]c2c1)N1CCN(c2ccc(Cl)cc2)CC1 | -0.22
COc1ccc(CNC2CC(C)N(C)CC2C)cc1OC (stereo not given) | 0.25
COc1ccc(NC(=O)N(C(C)C)C2CCN(C(C)=O)CC2)c(OC)c1 | 1.8
CCOc1ccc(CCNc2cc(C)nc3nc(C)nn23)cc1OCC | 2.6

# (next part)
SMILES,CBX7 inh,CBX7 inh z-score
COc1ccc(-c2nnc(Nc3ccc(OC)c(C(=O)N4CCCCC4)c3)c3ccccc23)cc1,0.55,-8.1
O=C(NCC1CCCO1)c1ccc2c(c1)N(Cc1ccccc1)CCS2 (stereo not given),0.71,-0.39
Cc1nc2ccc(S(=O)(=O)NC(C(=O)NC3CCCCC3)C(C)C)cc2s1 (stereo not given),1.1,2.8
COc1ccc(-c2cc(C(=O)Nc3cccc(Cl)c3)no2)cc1,1.1,2.9
CC(C)Cn1c(CCNC(=O)Cc2ccccc2)nc2ccccc21,0.97,-0.86
COc1ccc(Cl)cc1C(=O)NCCc1cc2c(C)ccc(C)c2[nH]c1=O,0.96,-1
COc1cccc(CNC(=O)Cn2nc(-c3ccc(C)cc3)ccc2=O)c1,1,1
COc1ccc(C(=O)CSc2nc3sc(C)c(C)c3c(=O)[nH]2)cc1[N+](=O)[O-],1,1.4
COc1cc(C2CC(=O)Nc3cc4c(cc32)OCCO4)ccc1OCc1ccccc1 (stereo not given),0.97,-0.58
COc1ccc(CNC(=O)CCc2c(C)nc3c(-c4ccccc4)c(C)nn3c2C)cc1,1.2,4.6
C=C(C)Cn1c(C2CC(=O)N(c3cccc(C(F)(F)F)c3)C2)nc2ccccc21 (stereo not given),1.1,0.93
Cn1nc(-c2ccc(OCC(=O)Nc3cccc4ccccc34)cc2)c2ccccc2c1=O,0.92,-2.4
COc1cc(C2C(=O)N(C3CCCCC3)CC(=O)N2Cc2ccc(C)cc2)ccc1OC(C)C (stereo not given),0.85,-2.2
Cc1ccc(CN2CCN(CC(=O)NCC3COc4ccccc4O3)C2=O)cc1 (stereo not given),0.95,-0.74
Cc1ccc(Nc2c(-c3cccs3)nc3cnccn23)cc1,1.2,1.8

# A second format for 5 compounds above:
# Below each compound: CBX7 inh	CBX7 inh z-score
- COc1ccc(-c2cc(C(=O)Nc3cccc(Cl)c3)no2)cc1
→ 1.1	2.9
- CC(C)Cn1c(CCNC(=O)Cc2ccccc2)nc2ccccc21
→ 0.97	-0.86
- COc1ccc(Cl)cc1C(=O)NCCc1cc2c(C)ccc(C)c2[nH]c1=O
→ 0.96	-1
- COc1cccc(CNC(=O)Cn2nc(-c3ccc(C)cc3)ccc2=O)c1
→ 1	1
- COc1ccc(C(=O)CSc2nc3sc(C)c(C)c3c(=O)[nH]2)cc1[N+](=O)[O-]
→ 1	1.4

# Later entries:
SMILES,CBX7 inh,CBX7 inh z-score
CCN(Cc1ccccc1)S(=O)(=O)c1ccc(C(=O)Nc2nnc(COC)o2)cc1,0.88,-3.1
Cc1nc2c(C(=O)NC(C)C)cnn2c(C)c1Cc1cccc(Cl)c1,0.98,-0.68
Clc1ccccc1CSc1nnc(-c2ccccc2)n1-c1ccccc1,0.95,-1.8
Cc1c(C(=O)N2CCCC2)oc2ccc(S(=O)(=O)N3CCOCC3)cc12,0.95,-0.54
CC(C)N(Cc1ccccc1)C(=O)C1CCN(C(=O)c2cnn(-c3ccccc3)c2-n2cccc2)CC1,1,0.44
Cc1ccc(Nc2ncc(C(=O)Nc3ccc(F)cc3F)c3ccccc23)cc1Cl,1.1,2.2
COc1ccc(CNC(=O)CC2Oc3ccccc3NC2=O)cc1 (stereo not given),1,0.91
CC(=O)Nc1ccc2nc(-c3cccnc3)[nH]c2c1,1,0.022
Cc1ccc(C(=O)Nc2ccc3nc(N4CCCCC4)cc(C)c3c2)cc1C,1.2,1.7
CCOc1ccc(N2C(=O)CC(NCc3ccc(Cl)cc3)C2=O)cc1 (stereo not given),1,0.94
COc1ccc2nc(NC(=O)Cc3cn(Cc4cccc(Cl)c4)c4ccccc34)sc2c1,0.99,-0.26
O=C(CCNS(=O)(=O)c1ccc2c(c1)CCC(=O)N2)Nc1ccc(Br)cc1F,0.96,-2.1
O=C(NCCN1CCOCC1)c1noc2c1CCc1ccccc1-2,1.1,0.87
C=CCN1C(=O)c2ccccc2Sc2ccc(C(=O)NCCOC)cc21,0.98,-0.59
COCCCNc1ncnc2c1c(-c1ccccc1)cn2-c1ccc(C)cc1,1.1,1.9
Cc1c(C(=O)N2CCC(Cc3ccccc3)CC2)oc2ccc(S(=O)(=O)N3CCOCC3)cc12,0.83,-3.1
O=C(c1cccc(Cl)c1)N(Cc1cccs1)C1CCS(=O)(=O)C1 (stereo not given),0.99,-0.15
CCCN(C(=O)Cn1ncc2c1-c1cc(C)ccc1OC2)c1ccccc1C,1,0.33
COCCCNC(=O)CSc1nc(-c2ccc(Br)cc2)[nH]c1-c1ccc(C)cc1,1.1,1.3
Fc1ccc(Nc2c(-c3ccsc3)nc3ncccn23)cc1,1.1,2.3
Cc1ccc(NC(=O)C2CCCN2S(=O)(=O)c2ccc3c(c2)n(C)c(=O)c(=O)n3C)c(C)c1 (stereo not given),1.3,3.1
COc1cccc(CN2C(=O)CN(C3CCCCC3)C(=O)C2c2ccc(F)cc2)c1 (stereo not given),0.91,-0.19
COc1ccc(Cn2c(=O)c3cccnc3n(Cc3cccc(OC)c3)c2=O)cc1,1,1.1
COC(=O)c1ccc(NC(=O)CSc2ccc3nnc(-c4ccccc4)n3n2)cc1,0.95,-0.62
Cc1ccc2ncnc(NCCc3ccccc3)c2c1,0.9,-1
Cn1nc(-c2ccccc2F)c2cc(C(=O)Nc3ccc(F)c(Cl)c3)sc21,1.1,1.5
CCn1cc(C(=O)Nc2cccc(OC)c2)c2cc(OC)c(OC)cc2c1=O,0.95,-1.4
CNC(=O)c1cc(NC(=O)CCn2nc(-c3ccccc3)c3ccccc3c2=O)ccc1OC,0.98,-0.6
CC(C)c1ccccc1NC(=O)CSc1nnc(COc2ccccc2Cl)o1,0.89,-1.3
COc1ccc(-n2nc(C(=O)NCC(=O)NCc3ccccc3OC)c3ccccc3c2=O)cc1,1,0.71
CC(NC(=O)c1ccc2c(c1)OCO2)C(c1cccs1)N1CCN(Cc2ccccc2)CC1 (stereo not given),0.92,-0.8
COc1cc(OC)cc(OCC(O)Cn2c(C)nc3ccccc32)c1 (stereo not given),1,0.18
CCc1ccc(NC(=O)CCc2c(C)nc3ncnn3c2C)cc1,1,0.07
CCC(=O)n1c2c(c3ccccc31)Nc1ccccc1N2,1.2,2.8
CCN(C(=O)c1cn(CC)c(=O)c2cc(OC)c(OC)cc12)c1cccc(C)c1,0.97,-0.13
CC1(C)CC2CC(C)(CN2S(=O)(=O)c2ccc(C(=O)Nc3nc(-c4ccncc4)cs3)cc2)C1 (stereo not given),0.99,-0.36
CC1=Nc2cc(C(=O)NCCCN3CCC(C)CC3)ccc2Sc2ccc(Cl)cc21,0.81,-5
O=S(=O)(Nc1nc2ccccc2nc1Nc1cccc(C(F)(F)F)c1)c1ccccc1,0.84,-4.5
CCN(CC)S(=O)(=O)c1ccc(NC(=O)c2cccc3c2C(=O)N(CCOC)C3)cc1,1.1,0.053
O=C(O)c1c[nH]c2c(C(F)(F)F)cccc2c1=O,0.84,-0.64
COc1ccc(CCC(=O)Nc2ccc(-c3noc(-c4ccccc4OC)n3)cc2)cc1,1,0.16
COC(=O)c1c(NC(=O)c2cccc(Cl)c2)sc2c1CCC2,1.3,4.7
COc1ccc(-c2nc(CSCC(=O)NCc3cccnc3)c(C)o2)cc1,0.99,-0.08
COC(=O)c1c(NC(=O)c2cccc(Cl)c2)sc(C)c1C,1.5,1.3
O=C(Nc1cccnc1)c1nn2c(C(F)(F)F)cc(-c3ccc(F)cc3)nc2c1Cl,1,0.15
CCc1ccccc1N(C)C(=O)c1cc2c(s1)-c1ccccc1OC2,1.2,7.5
Cc1ccc(-c2cc(C(=O)O)c3cc(Br)ccc3n2)cc1C,1,0.94
CCN(CC)CCCNC(=O)CN1N=C(c2ccc(Cl)cc2)CCC1=O,1.1,1.5
COc1ccc(-n2ccnc2SCC(=O)Nc2cccc(Cl)c2)cc1,0.52,-0.64
COc1ccc(NC(=O)CCC(=O)Nc2ccc3nc(N4CCN(C)CC4)cc(C)c3c2)cc1Cl,1,0.95
Cc1ccc(C)c2[nH]c(=O)c(CCNS(=O)(=O)c3ccccc3)cc12,1.1,0.53
Cc1ccc(-c2nn(CCC(=O)N3CCOCC3)c(=O)c3ccccc23)cc1,0.99,-0.44
O=C(Nc1ccc(F)cc1F)c1cnc(N2CCN(c3ccccn3)CC2)c2ccccc12,0.97,-1.1
COc1ccc(C2C(C(=O)NCc3ccccc3OC)CCC(=O)N2c2ccc3c(c2)OCO3)cc1 (stereo not given),1,-0.00092
O=C(NCCc1ccccc1)c1cc(=O)n(Cc2ccc(Cl)cc2)c2ccccc12,0.87,-1.4
O=C(NCCN1CCOCC1)c1ccc2c(c1)N(Cc1cccc(Cl)c1)C(=O)CS2,1,-0.058
COc1ccc(CNC(=O)c2cnn3c(C)c(Cc4ccc(F)cc4)c(C)nc23)cc1,0.87,-3.5
Cc1ccccc1Nc1nc(-c2c(C)nc3ncccn23)cs1,0.81&0.98,-2.1&-0.61
Cc1cc(C)cc(C(=O)N2CC(=O)Nc3ccc(Cl)cc3C2c2ccc(F)cc2)c1 (stereo not given),0.64,-3.4
Cc1ccc(-c2nc3cnccn3c2Nc2cccc(C(F)(F)F)c2)cc1,1.1,3.4

# (more compounds)
SMILES,CBX7 inh,CBX7 inh z-score
CCOc1ccc(CCNC(=O)CN2CCCN(Cc3ccc(F)cc3Cl)C2=O)cc1OCC,0.91,-1.7
O=C1CC2c3ccccc3C1C1C(=O)N(Cc3cccnc3)C(=O)C21 (stereo not given),0.98,-0.25
Cc1ccc(NC(=O)CS(=O)(=O)c2nc(-c3ccc(C)cc3)cn2-c2cccc(Cl)c2)cc1,0.64,-3.7
COc1ccc(CCN2C(=O)N(c3ccc(OC)cc3)C(=O)C2CC(=O)Nc2ccccc2)cc1 (stereo not given),0.97,-1
OCCn1c(SCCc2ccccc2)nc2ccccc21,1.1,2.1
O=C(Cn1nc(Cc2ccncc2)c2ccccc2c1=O)N1CCN(C2CCCCC2)CC1,0.93,-2.4
Cc1nc2c(C(=O)NCc3cccnc3)c[nH]n2c(=O)c1Cc1ccc(Cl)cc1,1.3,2.8

# Rewritten as tab-separated lines: entries from further up.
Structure	CBX7 inh	CBX7 inh z-score
OCCn1c(SCCc2ccccc2)nc2ccccc21	1.1	2.1
Cc1ccc(NC(=O)CS(=O)(=O)c2nc(-c3ccc(C)cc3)cn2-c2cccc(Cl)c2)cc1	0.64	-3.7
O=C1CC2c3ccccc3C1C1C(=O)N(Cc3cccnc3)C(=O)C21 (stereo not given)	0.98	-0.25
